Compound activity deposited in PubChem BioAssay by National Center for Advancing Translational Sciences (NCATS).
HSD17B inh – HSD17B dehydrogenase inhibition | 75,000 tested, 7.6% active | Potency, µM (top dose mostly 57.1 µM), without a hit: at the highest dose activity change, negative = inhibition, actives largely listed as inhibitors | AID 893 | recombinant HSD17B10, NADH fluorescence kinetic; many of its hits are not listed in these tables; active = well fitted inhibition curve with a large enough effect; inconclusive = small, poorly fitted or top-dose-only effect; inactive = no such curve, though single readings can be large or run the other way;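 note: the protocol describes HADH2 (HSD17B10) and not the HSD17B4 of the title; nearly all actives have a fitted effect of over 70% in size; most hits overshoot -100% by far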
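Enzyme plus compound, 15 min room temperature; substrate mix added (NAD+ 1 mM, beta-hydroxybutyryl-CoA 90 uM final); plates read kinetically for NADH fluorescence. HADH2 was His-tagged, E. coli-derived, 20 nM.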
* = called active by the depositor; ? = inconclusive; & = joins results of further samples; [ ] = dose if it differs, or a comment. % is set by controls: 0 for no effect and ±100 for the full control effect; potency is the fitted concentration of half-maximal effect. This is a subset. The share of hits here may be higher or lower than overall.

Molecule | HSD17B inh
CC(C)c1ccc(NC(=O)C(c2ccccc2)N2CCN(C(=O)c3ccco3)CC2)cc1 (stereo unspecified) | 7%
O=C(NCCc1ccc(Cl)cc1)C1CCN(S(=O)(=O)c2ccc(-n3cnnn3)cc2)CC1 | 5%
COCC(C)n1c(C)cc(C(=O)COC(=O)c2nc3nc(C)cc(C)n3n2)c1C (stereo unspecified) | -2%
CC(=O)N(CCO)Cc1cc2cc(C)cc(C)c2[nH]c1=O | ?
COCCNC(=O)C(OC(=O)CC1Sc2ccccc2NC1=O)c1ccncc1 (stereo unspecified) | -3%
CCn1cc(C(=O)NCCCOC)c2cc(OC)c(OC)cc2c1=O | -5%
Cc1ccc(CN2CCN(C(=O)C3CCC3)CC2)cc1 | -7%
COc1ccc(C2=NOC(C(=O)Nc3cc(C)nn3-c3ccccc3)C2)cc1OC (stereo unspecified) | 2%
O=C(O)CCNc1ccc2c(c1)OCCO2 | 1%
COCCNc1nc(C)nc2c1nc(-c1ccccc1)n2CC1CCN(C)CC1 | 25µM*
N#Cc1ccc(CSc2nnc(Cc3cccs3)n2Cc2ccco2)cc1 | -15%
COc1ccccc1-c1nnc2sc(-c3ccc(N(C)C)cc3)nn12 | 25µM*
C/C=C/c1ccc(OCCCCN2C(=O)NC(C)(C)C2=O)c(OC)c1 | -9%
CCOC(=O)C1CSC(Cc2ccc(OCc3ccc([N+](=O)[O-])cc3)cc2)N1 (stereo unspecified) | -14%
CC(=O)Nc1ccc(C(=O)Nc2ccc(S(=O)(=O)NCC3CCCO3)cc2)cc1 (stereo unspecified) | 5%
CC(=O)c1ccc(OCC(C)C)c(CN2CCCCC2)c1 | 1%
CCCCCCn1c(CN2CCCCC2)nc2c1c(=O)n(C)c(=O)n2C | 2%
COc1ccc2c(c1OC)C(=O)OC2CC(=O)c1ccc(O)cc1 (stereo unspecified) | -3%
FC(F)(F)c1cc(CN2CCC3(CCNCC3)CC2)cc(C(F)(F)F)c1 | -2%
CNc1nc(CC(C)=O)ns1 | 4%

More structures follow:
Molecule | HSD17B inh
COC(=O)c1cccc(NC(=O)Cc2coc3cc(OC)ccc23)c1 | -10%
CCOC(=O)N1CCN(Cc2nc3c(c(=O)n(C)c(=O)n3C)n2Cc2ccccc2)CC1 | 13%
CCOC(=O)N1CCN(c2cc(=O)n(-c3ccc(OCC)cc3)c(=O)[nH]2)CC1 | -3%
Cc1ccc(N2CCN(S(=O)(=O)N(C)C)CC2)cc1Cl | -3%
COc1cc(S(=O)(=O)N2CCOCC2)cc(C(=O)c2nccn2C)c1OC | -1%
O=C(O)C1C2C=CC(O2)C1C(=O)NCc1ccc2c(c1)OCO2 (stereo unspecified) | -11%
Cc1c(C#N)c2ccccc2n1CCOc1ccccc1F | -4%
CCn1c(-c2c[nH]c3ccccc23)n[nH]c1=S | 0%
COc1ccccc1C1C(C(=O)NCc2ccccc2)=C(C)Nc2ncnn21 (stereo unspecified) | 0%
COc1c2c(nc3ccccc13)O[C@@H]([C@@](C)(O)CO)C2 | 4%
CC1CCC2C(=O)OC(COc3ccc(C(C)(C)C)cc3)CN2C1c1ccc(Br)cc1 (stereo unspecified) | 0%&-1%&1%&1%&3%[11.4 µM]
CCC(=O)N1CCc2cc(S(=O)(=O)NCCC(=O)N3CCN(c4ccccn4)CC3)ccc21 | -3%
CC(C)(C)NC(=O)C(c1ccccn1)N(C(=O)c1ccc2c(c1)OCCO2)C1CCCC1 (stereo unspecified) | 4%
CN(C)C=Nc1c(Br)cc(Br)c2nonc12 | 2%
Cc1ccccc1-c1cncnc1N(C)Cc1ccco1 | -24%
Cc1cccc(-n2nnnc2SC(C)C(=O)NCCC2=CCCCC2)c1 (stereo unspecified) | -8%
O=C1N=C(N2CCOCC2)S/C1=C1\C(=O)N(Cc2ccccc2)c2ccccc21 | -1%
Cc1ccc(C(=O)Nc2nc3ccccc3c(=O)s2)cc1 | -8%
COc1cc(OC)cc(-c2nnc(SCc3c(F)cccc3Cl)o2)c1 | -10%
CC(C)C(=O)Nc1ccc(N2CCN(C(=O)c3cccs3)CC2)cc1 | 4%

The results go on.
Molecule | HSD17B inh
COc1ccc(C2CC(C(F)(F)F)n3nc(C(=O)NCc4cn(C)nc4C)c(Cl)c3N2)cc1 (stereo unspecified) | 3%
CS(=O)(=O)N(CC(=O)NCC1CCCO1)c1ccc(F)c(Cl)c1 (stereo unspecified) | 5%
O=C(CSc1nnc(-c2cccs2)n1-c1ccccc1)N1CCCC1 | 8%
CC1(C)CC2CC(C)(CN2C(=O)CN2C(=O)c3ccccc3C2=O)C1 (stereo unspecified) | -6%
CC(C)(Oc1ccc(Cl)cc1)C(=O)Nc1ccc2oc(-c3ccncc3)nc2c1 | 32µM*
CCOC(=O)c1[nH]c(C)c(C(=O)N2CCN(C(=O)OCC)CC2)c1CC | 0%
CN(C)c1nc(-c2ccccc2C(F)(F)F)nc2ccccc12 | 8%
COc1ccc(N2CCN(C(=O)CCn3nnc4ccccc43)CC2)cc1 | 11%
CCCN1C(=O)C(O)(CC(=O)c2cccc(OC)c2)c2ccccc21 (stereo unspecified) | -13%
O=C(CC(c1ccccc1)c1cc(Cl)ccc1O)N1CCOCC1 (stereo unspecified) | 14%
C[N+]1(NCC[N@@+]2(C)CCc3ccccc3C2)CCCCC1 | 5%[11.4 µM]
CC(=O)NC(CCS(C)(=O)=O)C(=O)Nc1ccccc1C (stereo unspecified) | 11%
COc1ccccc1CNc1cc(-c2ccc(C(=O)N(C)C)cc2)ncn1 | 4%
CO[C@@H]1COC(=O)[C@H]2CCCN2C(=O)C/C=C\[C@@H](C)[C@H](OC)COC(=O)[C@H]2CCCN2C(=O)C/C=C\[C@H]1C | -6%[11.4 µM]
CCOC(=O)Cn1c(-c2ccccn2)nc2ccccc21 | 32µM*
O=C(Nc1ccccc1)NC1(C(=O)N2CCN(C(=O)c3ccco3)CC2)CCCCC1 | 0%
COc1ccc(-c2csc(NC(=O)c3cc(C)on3)c2C#N)cc1OC | -6%
Cc1ccc(S(=O)(=O)C2(C(=O)Nc3nccs3)CC2)cc1 | -1%
CCOc1ccc(-c2noc(COC)n2)cc1OC | -11%
Cn1cnnc1SCC(=O)Nc1ccccc1C(=O)NC1CCCC1 | 3%

The final 5 compounds of the part above are carried over, then new ones follow.
| Structure | HSD17B inh |
| --- | --- |
| O=C(Nc1ccccc1)NC1(C(=O)N2CCN(C(=O)c3ccco3)CC2)CCCCC1 | 0% |
| COc1ccc(-c2csc(NC(=O)c3cc(C)on3)c2C#N)cc1OC | -6% |
| Cc1ccc(S(=O)(=O)C2(C(=O)Nc3nccs3)CC2)cc1 | -1% |
| CCOc1ccc(-c2noc(COC)n2)cc1OC | -11% |
| Cn1cnnc1SCC(=O)Nc1ccccc1C(=O)NC1CCCC1 | 3% |
| Cc1ccc(S(=O)(=O)N(CC(=O)N2CCC(C(N)=O)CC2)Cc2ccc(F)cc2)cc1 | -6% |
| CCn1c(SCC(=O)Nc2ccc(C(C)=O)cc2)nc2ccccc21 | 2% |
| Cc1cccc(-c2c3c(=O)n(C)c(=O)n(C)c3cn2CC2CCCO2)c1 (stereo unspecified) | -5% |
| C[C@@]12CC(=O)[C@@H]3[C@@H](CCC4=CC(=O)CC[C@]43C)[C@@H]1CC=C2CC(=O)O | 4%[11.4 µM] |
| O=C(OCC1CC(c2ccccn2)=NO1)c1ccc(Br)cc1 (stereo unspecified) | -1% |
| c1cncc(-c2nc(-n3ccnc3)c3ccccc3n2)c1 | 1% |
| CCOC(=O)C1(C)NC(c2ccc(N(C)C)cc2)C2C(=O)N(c3ccc(OC)cc3)C(=O)C21 (stereo unspecified) | 7% |
| C=CCn1c(SCC(N)=O)nnc1-c1cccc(Br)c1 | 0% |
| c1ccc2c(c1)oc1c(Nc3ccc4c(c3)OCO4)ncnc12 | -2% |
| O=C1CCCc2c1cc(C(=O)NCc1ccco1)c(=O)n2-c1ccccc1 | 0% |

Additional structures
| Structure | HSD17B inh |
| --- | --- |
| c1nc(NCCN2CCOCC2)c2c3c(sc2n1)CCCCC3 | -7% |
| CCOC(=O)c1c(C)n(O)c2ccc(Cl)cc2c1=O | 9% |
| CNc1cc(-c2ccccc2C(F)(F)F)ncn1 | -14% |
| COC(=O)c1ccccc1NC(=O)c1noc2c1CC(C(C)(C)C)CC2 (stereo unspecified) | -4% |
| Cc1ccccc1-c1cc(Nc2ccccc2)ncn1 | 9% |
| CCCn1c(N2CCN(CC(=O)c3c(C)n(C)c4ccccc34)CC2)nc2c1c(=O)[nH]c(=O)n2C | -6% |
| C=CCn1c(SCc2ccccc2C#N)nnc1-c1cc(Br)ccc1O | 3% |
| O=C(CSc1nnnn1-c1ccccc1)N1CCc2ccccc2C1 | 4% |
| COc1ccc(N2C(=O)C3CCCN3C2c2cccc(C)c2)cc1Cl (stereo unspecified) | 6% |
| CC(C)Cn1c(-c2ccc(F)cc2)n[nH]c1=S | ? |

Further compounds
| Structure | HSD17B inh |
| --- | --- |
| O=S(=O)(NCC1CCCO1)c1ccc(Oc2ccccc2)cc1 (stereo unspecified) | 12% |
| C=C(C)C(O)/C=C/CCCCCCC (stereo unspecified) | 1%[11.4 µM] |
| O=c1[nH]c(=S)[nH]c2c1CN(CCCN1CCOCC1)CN2 | -3%[11.4 µM] |
| COc1c(Br)cc2c(C)c(C(=O)O)oc2c1Br | 3% |
| O=C(COc1c(F)c(F)cc(F)c1F)NC(=O)NC1CCCC1 | -6% |
| COc1ccccc1N=c1scc(-c2ccc3c(c2)NC(=O)CO3)n1CC1CCCO1 (stereo unspecified) | -7% |
| CN(C=O)CP(=O)(O)CCN1CCCC1=O | 0% |
| C/C(CCN1CCCCc2nc(C)c(C)cc21)=N\OC[C@@H](O)COCc1ccco1 | 4%[11.4 µM] |
| COc1ccc(CCNC(=O)COC(=O)c2ccco2)cc1OC | -3% |
| Cc1cnc(CNc2ncncc2-c2cccnc2)cn1 | 0% |

The list goes on:
| Structure | HSD17B inh |
| --- | --- |
| CCC(c1nnnn1Cc1ccc(F)cc1)N1CCN(C2CCCCC2)CC1 (stereo unspecified) | -1% |
| c1cn2cc(CSC3CCCCC3)nc2s1 | 2% |
| Cc1ccc(-c2nc(C#N)c(NCc3ccco3)o2)cc1 | 32µM* |
| COc1ccc(-c2nc(Cn3c(SCc4cccc(F)c4)nc4ccncc43)c(C)o2)cc1OC | -1% |
| CCn1ncc(NC(=O)Nc2cccc(C(F)(F)F)c2)c1C(N)=O | -1% |
| O=C1c2ccccc2C(=O)C1c1ccc2ccccc2n1 | -6% |
| O=C(CCCCCn1c(=O)[nH]c2ccsc2c1=O)N1CCCCC1 | -4% |
| COc1ccc(OC)cc1 | 4% |
| CN(C)CCCn1cnc2cc(Cl)c(Cl)cc21 | 8%[11.4 µM] |
| CCC(C)(C(=O)NC1CCCCC1)N(Cc1ccco1)C(=O)CNC(=O)c1ccccc1 (stereo unspecified) | 17% |

Part of the list above, as labelled records:
c1cn2cc(CSC3CCCCC3)nc2s1
  HSD17B inh = 2%

Cc1ccc(-c2nc(C#N)c(NCc3ccco3)o2)cc1
  HSD17B inh = 32µM*

COc1ccc(-c2nc(Cn3c(SCc4cccc(F)c4)nc4ccncc43)c(C)o2)cc1OC
  HSD17B inh = -1%

CCn1ncc(NC(=O)Nc2cccc(C(F)(F)F)c2)c1C(N)=O
  HSD17B inh = -1%

New compounds follow:
| Structure | HSD17B inh |
| --- | --- |
| COc1ccccc1CN1C(=O)[C@@H]2C(CCC(N)=O)NC3(C(=O)Nc4c3ccc(Cl)c4C)[C@@H]2C1=O (stereo partly specified) | -7% |
| NS(=O)(=O)c1ccc(N=Nc2nc3[nH]c(=O)[nH]c(=O)c3[nH]2)cc1 | 4µM* |
| CCC1=C2CC[C@H]3C(=O)N(CC)C(=O)[C@H]3[C@H]2[C@@]2(Cc3ccccc3)C(=O)N(CC3CC3)C(=O)N2C1=O | -4% |
| COC(=O)c1nc2nc(C)cc(C(F)(F)F)n2n1 | -2% |
| CCOc1ccc2nc(N3CCC(C(=O)N4CCN(C5CCCCC5)CC4)CC3)sc2c1 | 7% |
| Cc1cc(C)c(S(=O)(=O)Nc2ccc(O)cc2)c(C)c1 | -6% |
| CCOc1ccc(N(CC(=O)NCC(C)C)S(C)(=O)=O)cc1 | -4% |
| O=C(CN(Cc1ccc(F)cc1)C(=O)c1ccco1)NCc1ccc(F)cc1 | 8% |
| O=C(Nc1cccnc1)C1OCCc2ccccc21 (stereo unspecified) | -2% |
| Cc1cc(=O)oc2cc(O)c(O)cc12 | 16µM* |

Other structures.
| Structure | HSD17B inh |
| --- | --- |
| CCCCSc1nc2c(cnn2-c2ccc(Cl)cc2)c(=O)[nH]1 | -1% |
| O=c1cc(CSc2ccc(Cl)cc2)nc2nc[nH]n12 | -14% |
| COc1ccccc1N1CCN(C(=O)c2cn(-c3ccccc3)nc2-c2cccnc2)CC1 | 1% |
| COc1ccccc1CNC(=O)C1CC(=O)N(C2CCCC2)C1 (stereo unspecified) | 3% |
| Cc1nn(-c2ccccc2)c(C)c1C(=O)OC/C(O)=C(\C#N)c1nc2ccccc2[nH]1 | -19% |
| Cc1ccc(CN2C(=O)CCC2C(=O)NCCN(CC(C)C)CC(C)C)cc1 (stereo unspecified) | -8% |
| Cc1cc2ccccc2c(=O)n1CC(=O)N(C)c1ccc(F)cc1 | ? |
| Cn1c(=O)n2n(c1=O)[C@H]1[C@H](O)[C@H]3O[C@@H]3/C(=N/OCc3ccccc3)[C@@H]1CC2 | 4%[11.4 µM] |

Compounds shown so far that contain a tert-butyl group, in the order listed:
| Structure | HSD17B inh |
| --- | --- |
| CC1CCC2C(=O)OC(COc3ccc(C(C)(C)C)cc3)CN2C1c1ccc(Br)cc1 (stereo unspecified) | 0%&-1%&1%&1%&3%[11.4 µM] |
| CC(C)(C)NC(=O)C(c1ccccn1)N(C(=O)c1ccc2c(c1)OCCO2)C1CCCC1 (stereo unspecified) | 4% |
| COC(=O)c1ccccc1NC(=O)c1noc2c1CC(C(C)(C)C)CC2 (stereo unspecified) | -4% |
